High-throughput results: PubChem, several laboratories
Mtb betalactam: beta-lactam sensitization of Mtb H37Rv | M. tuberculosis H37Rv growth with meropenem, percent inhibition; hits of this screen are not shown here | inhibition, % at 25 µM | AID 434955 | actives 0.27% (n = 330,000);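 active = about 74% or more and at least 40 points above the plate without the antibiotic, then above 30% in a dose series; inconclusive = first-round hits that could not be retested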;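 note: growth measured after seven days incubation then overnight dye step; 0% = bacteria only wells and 100% = bacteria with antibiotic; twin plates without the antibiotic show which effects depend on it; some results filed as inactive read as strong as hits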
RecA intein inh: Mtb RecA intein splicing inhibition | actives 0.75% (n = 290,000) | cell-free RecA intein splicing, fluorescence | inhibition, %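 (about 9 µM by stock and volumes)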 | AID 2221; in the data active = inhibition above about 30%; inconclusive = no clear call, values can overlap the other calls;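 note: 0% = vehicle wells and 100% = reference inhibitor control wells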
Target sequence (P9WHJ3 whole entry, looked up): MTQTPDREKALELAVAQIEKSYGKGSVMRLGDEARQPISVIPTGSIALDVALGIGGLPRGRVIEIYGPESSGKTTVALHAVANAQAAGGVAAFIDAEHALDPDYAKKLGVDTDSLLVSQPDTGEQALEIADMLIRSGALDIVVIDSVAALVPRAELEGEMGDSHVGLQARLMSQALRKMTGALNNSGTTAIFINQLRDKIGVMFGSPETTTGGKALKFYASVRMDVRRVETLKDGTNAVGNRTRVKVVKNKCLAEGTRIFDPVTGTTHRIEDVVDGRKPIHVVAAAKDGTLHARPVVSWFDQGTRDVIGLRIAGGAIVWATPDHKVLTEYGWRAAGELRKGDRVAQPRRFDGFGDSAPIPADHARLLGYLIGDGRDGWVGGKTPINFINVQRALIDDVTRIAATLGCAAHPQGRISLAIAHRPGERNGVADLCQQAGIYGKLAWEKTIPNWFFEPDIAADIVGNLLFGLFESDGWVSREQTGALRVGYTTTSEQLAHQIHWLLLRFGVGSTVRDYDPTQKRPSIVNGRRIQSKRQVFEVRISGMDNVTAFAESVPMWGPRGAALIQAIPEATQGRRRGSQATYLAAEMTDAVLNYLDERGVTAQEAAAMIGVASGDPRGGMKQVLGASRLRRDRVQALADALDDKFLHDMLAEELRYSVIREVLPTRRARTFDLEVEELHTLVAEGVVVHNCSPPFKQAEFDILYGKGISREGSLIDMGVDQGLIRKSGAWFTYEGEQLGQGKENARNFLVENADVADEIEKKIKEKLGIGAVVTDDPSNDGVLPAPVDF
Arbovirus inh: blocks arbovirus infection | actives 0.37% (n = 200,000) | inhibition, % at 10 µM | arbovirus infection cell-based antiviral screen;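 active = inhibition from about 30%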;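 note: bluetongue infection of BSR cells; cell survival read as ATP light after 72 h; 0% = infected wells without compound and 100% = uninfected wells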
Mtb growth: M. tuberculosis H37Rv growth inhibitors, H37Rv strain (AID 1626); actives 0.95% (n = 220,000); one-dose inhibition, % at 10 µM; IC50 in µM for titrated hits; M. tuberculosis H37Rv growth inhibition; higher % means a stronger effect;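 active = confirmed in a dose series; inconclusive = inhibition above 80% but not taken into the dose series; inactive = below 80% or under 30% at every dose of the series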;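 note: bacteria incubated seven days before Alamar blue readout; 0% = bacteria only wells and 100% = bacteria with antibiotic wells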
YopH PTP inh: inhibitors of Yersinia enterocolitica YopH tyrosine phosphatase | fluorescence Ex485/Em525 | inhibition, %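 (about 10 µM by stock and volumes)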 | AID 898 | actives 0.16% (n = 140,000);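 active = inhibition of 50% or more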;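 note: controls were vehicle for no effect and minimum signal wells for full effect; inactives centre near -20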
Arbovirus inh repeat: further read-out of Arbovirus inh, marked with its call; inhibition, %; measured here: 10K subset replicate screen; many hits read low in the repeat;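 first of two repeat runs on a subset; 0% = infected and 100% = uninfected wells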
Active calls of the source: *; ? = inconclusive; / = not tested or not shown. A portion of the library (hit frequency here may not be typical).

SMILES	Mtb betalactam	RecA intein inh	Arbovirus inh	Mtb growth	YopH PTP inh	others
Cc1ccc(CSc2nsc(C)c2C#N)cc1	1	2.7	/	/	/
CC(C)(C)n1nnnc1C(c1ccncc1)N1CCCCCC1 (configuration not stated)	2	-1.4	2	12%	-42
COc1ccc(C)cc1-n1c(-c2ccncc2)n[nH]c1=S	-3	-0.1	5	-1%	-21
Cc1c(C(=O)NC2CCCCC2)sc2ncnc(N3CCN(c4ccccc4)CC3)c12	9	-1.6	/	/	/
COc1ccc(CCn2c(=O)[nH]c3cc(C(=O)N4CCN(c5ccccc5)CC4)ccc3c2=O)cc1OC	-1	0.3	-2	7%	/
CCOc1ccc(S(=O)(=O)Nc2ccccc2SC)cc1	-6	4.4	-9	-1%	-4
Cc1nnc(-c2cnn(-c3ccccc3)c2N)n1Cc1ccc(F)cc1	-1	-0.8	-7	1%	-13
Cn1nnnc1SCc1nc2ccccc2s1	-8	2.5	1	-5%	0
O=C(CC1S/C(=N/N=C/c2ccco2)NC1=O)Nc1cccc(Cl)c1Cl (configuration not stated)	-1	1.6	-15	6%	/
COc1ccc(CN2CCN(Cc3ccc(C(F)(F)F)cc3)CC2)cc1	-1	-2.0	/	/	/
CCS(=O)(=O)Nc1cccc(C2=NN(S(C)(=O)=O)C(c3cccs3)C2)c1 (configuration not stated)	6	4.3	/	/	/
Cc1ccc(NC(=O)C2C(c3ccccc3)C=CC(c3ccccc3)C2C(=O)O)cc1 (configuration not stated)	7	2.2	8	3%	-33
c1cc(CN2CCCCC2)cc(OCCCNc2nc3ccccc3s2)c1	4	-1.0	/	8%	/
CSc1nnc(C2CCNCC2)n1C	-7	-0.4	5	1%	-18
CCCCCNS(=O)(=O)c1cc2c3c(c1)CCC(=O)N3CCC2	-4	-1.6	/	/	/
O=C(/C(=C/O)N=Nc1ccc(Cl)cc1)c1ccncc1	87	16	-33	?	-12
CCCC(NC(=S)NCC1CCCO1)C12CC3CC(CC(C3)C1)C2 (configuration not stated)	4	0.4	14	-1%	/
OCCN1CCN(CC(O)COc2ccc(C34CC5CC(CC(C5)C3)C4)cc2)CC1 (configuration not stated)	31	2.7	-35	9.6µM*	/
COP(=O)(OC)c1nc(-c2ccc([N+](=O)[O-])cc2)oc1N1CCCCC1	-2	0.5	/	/	/
CC(=O)O[C@H]1CC[C@@]2(C)C(=CC[C@H]3[C@@H]4CC[C@H](C(C)=O)[C@@]4(C)CC[C@@H]32)C1	-1	7.0	/	5%	/
CC1(C)CC(NC(=O)c2cccc3ccccc23)CC(C)(C)N1	-2	-1.0	-3	-2%	-8
Cc1cc(C)n(C(=O)Cn2nc([N+](=O)[O-])cc2C)n1	8	-2.8	20	-9%	/
O=C1CC(N2CCN(c3ccccc3)CC2)C(=O)N1c1cccc(Cl)c1 (configuration not stated)	1	0.1	/	/	/
CCOC(=O)C1=C(N)n2c(s/c(=C/c3ccccc3)c2=O)=C(C(=O)OCC)C1c1ccccc1 (configuration not stated)	7	7.2	1	/	-45
CCCNc1c(NS(=O)(=O)c2ccc(OC)c(OC)c2)c(=O)oc2ccccc12	-2	-1.9	/	/	/
Cc1ccc(C(=O)NC2CCS(=O)(=O)C2)cc1S(=O)(=O)N1CCCCC1 (configuration not stated)	-18	-0.4	2	0%	-58
CC(O)CNc1nc2c(c(=O)n(Cc3cccc(Cl)c3)c(=O)n2C)n1C (configuration not stated)	-4	1.7	/	/	/
CCOc1ccc(CCNC(=O)c2cc(C)on2)cc1OCC	-25	0.1	/	/	/
CCC1=NN(C(=O)Cc2ccc([N+](=O)[O-])cc2)C(O)(C(C)(C)C)C1 (configuration not stated)	-5	0.2	17	3%	/
CC(C)Cc1ccc(S(=O)(=O)N2CCN(C(=O)c3ccco3)CC2)cc1	2	4.8	6	-2%	-11
COc1cc(NC(=O)Cc2ccccc2)ccc1NC(=O)c1ccccc1	-5	-1.5	/	/	/
CCC(=NC1CC(C)(C)NC(C)(C)C1)C1=C(O)CC(C)(C)CC1=O	1	-0.7	-4	5%	-59
O=C(CSc1nc2ccccc2[nH]1)NCc1ccco1	-1	1.7	1	9%	-46
Cc1cc(C)nc(/N=C(\N)N2CCCCCC2)n1	-6	5.2	-2	-8%	-19
CC(=NCc1ccco1)c1c(O)n(-c2ccc(C)cc2)c(=O)[nH]c1=O	-1	2.3	/	-8%	/
COC(=O)C1CCN(S(=O)(=O)CCNC(=O)c2ccc(F)cc2)CC1	-1	-2.6	/	/	/
CCOC(=O)CCc1c(C)c2ccc(OC3CCCCC3=O)cc2oc1=O (configuration not stated)	-6	0.4	/	/	/
CCc1ccc(/C=C2\Oc3c(ccc(O)c3CN3CCN(C)CC3)C2=O)cc1	3	-5.4	/	2%	/
COc1ccc(S(=O)(=O)N2CCCCCC2)cc1C(=O)Nc1cccc(C)n1	7	-4.2	/	/	/
Cc1cc(Cl)ccc1OCCCC(=O)NCC1CCCO1 (configuration not stated)	1	-1.3	-2	8%	-31
CC(=O)c1c(C(C)=O)c(C)n(-c2ccc(N)c(C)c2)c1C	-2	1.5	-1	-4%	-2
Cc1nc(NC(=O)/C=C/c2ccccc2)sc1C(=O)Nc1ccc(Cl)cc1	3	0.2	-22	-4%	-32
Cc1[nH][nH]c(=O)c1C(c1c(C)[nH][nH]c1=O)c1cn(Cc2ccccc2Cl)c2ccccc12	/	99*	-4	6%	13
Cc1nc2nc(-c3cccnc3)nn2c(C)c1Cl	-7	3.2	-2	-7%	-14
O=C(NCCc1ccccc1)C1CC(=O)N(C2CCCCCC2)C1 (configuration not stated)	-6	-0.6	3	-4%	-15
COC(=O)c1ccc(N2C(=O)Nc3ccccc3N2O)cc1	2	-1.3	0	?	/
O=C(OCC(=O)N1CCCc2ccccc21)c1c(F)cccc1F	-13	1.6	/	/	/
CCc1nc(N)c(C#N)c(-c2ccc(OC)c(OC)c2)c1C	-4	1.7	-4	-2%	4
COc1ccc(-n2c(SCc3ccc([N+](=O)[O-])cc3)nnc2-c2ccccc2)cc1	11	-0.7	4	11%	-27
Cc1ccc(C)c2[nH]c(=O)c(CN(Cc3ccc4c(c3)OCO4)Cc3nnnn3Cc3ccco3)cc12	-9	7.7	-20	-11%	-31

Entries shown so far that contain a thiophene ring, fused or not:
SMILES	Mtb betalactam	RecA intein inh	Arbovirus inh	Mtb growth	YopH PTP inh	others
Cc1c(C(=O)NC2CCCCC2)sc2ncnc(N3CCN(c4ccccc4)CC3)c12	9	-1.6	/	/	/
CCS(=O)(=O)Nc1cccc(C2=NN(S(C)(=O)=O)C(c3cccs3)C2)c1 (configuration not stated)	6	4.3	/	/	/

Continued.
SMILES	Mtb betalactam	RecA intein inh	Arbovirus inh	Mtb growth	YopH PTP inh	others
COc1ccc(OCC(O)CNC(=O)Nc2cc(F)ccc2C)cc1 (configuration not stated)	-9	2.1	/	-15%	/
O=C(c1cccc([N+](=O)[O-])c1)N1CCCC(C(=O)N2CCCCC2)C1 (configuration not stated)	-13	-3.9	/	-5%	/
O=C(CN1C(=O)CNC1=O)Nc1cccc(C(F)(F)F)c1	-8	-1.9	-4	0%	-1
CCOC(=O)C1(CC2CCCCO2)CCN(C(=O)NCc2ccccc2)CC1 (configuration not stated)	-11	/	4	5%	/
Cc1csc2ncnc(NCCc3ccccn3)c12	-1	/	11	9%	/
CC(C)Oc1cc2oc(=O)c3c(c2cc1Cl)CCC3	-4	-1.1	0	-4%	-89
COc1ccc(/C=N/N=C2/NC(=O)C(c3ccccc3)(c3ccccc3)S2)cc1	5	-0.2	-1	-2%	-6
COc1ccc(C(=O)Nc2ccc(S(=O)(=O)Nc3cc(C)nc(C)n3)cc2)c(OC)c1	62	-1.2	2	0%	-21	Arbovirus inh repeat=5
Cc1cc(C)c(-n2c(C)cc(/C=C3/NC(=O)NC3=O)c2C)c(C)c1	29	8.4	-28	-2%	19
Cc1cc(/C=C(\C#N)C(=O)O)c(C)n1CC(C)C	-4	/	-7	-3%	-27
CCN(CC(=O)NC1CCCC1)S(=O)(=O)c1ccc(C)cc1	1	5.7	0	-6%	-28
O=C(CCN1CCc2ccccc2CC1)c1ccc2c(c1)OCCO2	41	4.3	-10	-4%	8
Cc1ccc(NC(=O)CSc2ccccc2NC(=O)c2ccccc2)cc1Cl	7	-1.8	-8	3%	-28
N#Cc1ccc[n+](CC(=O)c2ccc(Cl)cc2)c1	-1	8.6	/	/	/
COC(=O)C1=C(NC(=O)c2ccc(C)cc2)CCS1	-9	3.7	1	-1%	-20
C=CCn1c(SCC(=O)N2CCc3ccccc3C2)nc2sc(C)cc2c1=O	-7	-1.6	1	7%	-20
NNc1nc(Nc2ccccc2)nc(N2CCCCC2)n1	96	-2.2	-26	?	-5
O=C(Cn1ncc2c3ccccc3n(Cc3ccccc3)c2c1=O)NCc1ccccn1	3	0.3	/	/	/
O=C1CCCC2=C1C(c1ccccc1)CC(=O)N2c1ccccc1 (configuration not stated)	1	1.2	5	-1%	-32
CC(=O)CC(=O)Nc1ncc(C(F)(F)F)cc1Cl	3	1.2	8	6%	/
Cc1ccc(Cn2c(=O)n(Cc3ccco3)c(=O)c3ccccc32)cc1	15	0.6	-3	0%	-31
C/C(=N\NC(=O)COc1ccc(C(C)(C)C)cc1)c1ccc(OC(F)F)cc1	2	-4.6	8	5%	-38
O=C(Nc1cccc(F)c1)c1c(F)c(F)c(F)c(F)c1F	35	6.7	2	-2%	40
Cc1cc([N+](=O)[O-])nn1CCCC(=O)O	-5	-2.9	6	0%	/
Cc1ccc(N2C(=O)C(Cc3ccccc3)NC2=S)cc1 (configuration not stated)	4	11	7	7%	-30
CC(C)c1ccc(/C=C(\c2nc3ccccc3[nH]2)S(=O)(=O)c2ccccc2)cc1	8	80*	-33	-3%	-3
CN(C)CC1CSCCC1(O)c1ccccc1 (configuration not stated)	-1	/	1	1%	-8
Cc1ccc2nc(SCC(=O)N(CC(C)C)c3c(N)n(Cc4ccccc4)c(=O)[nH]c3=O)[nH]c2c1	-1	0.4	/	2%	/
O=C(NC1=NCCS1)c1cccc(F)c1	-8	-1.3	/	/	/
CC1(C)C2CCC1(C)C1(C2)NC(=O)c2ccccc2O1 (configuration not stated)	-4	4.7	1	4%	-10
CCCCCOC(=O)Cn1c(N2CCCCCC2)nc2c1c(=O)[nH]c(=O)n2C	-9	0.0	-8	-12%	-61
Cc1cccc(Nc2ncccc2C(=O)NCc2cccs2)c1C	67	7.1	5	11%	-48
O=C1CCC(C(=O)N2CCN(c3cnccn3)CC2)CN1CCc1cccc(F)c1 (configuration not stated)	-8	-0.4	/	/	/

Structural class, the entries above with an aryl methoxy group
SMILES	Mtb betalactam	RecA intein inh	Arbovirus inh	Mtb growth	YopH PTP inh	others
COc1ccc(C)cc1-n1c(-c2ccncc2)n[nH]c1=S	-3	-0.1	5	-1%	-21
COc1ccc(CCn2c(=O)[nH]c3cc(C(=O)N4CCN(c5ccccc5)CC4)ccc3c2=O)cc1OC	-1	0.3	-2	7%	/
COc1ccc(CN2CCN(Cc3ccc(C(F)(F)F)cc3)CC2)cc1	-1	-2.0	/	/	/
CCCNc1c(NS(=O)(=O)c2ccc(OC)c(OC)c2)c(=O)oc2ccccc12	-2	-1.9	/	/	/
COc1cc(NC(=O)Cc2ccccc2)ccc1NC(=O)c1ccccc1	-5	-1.5	/	/	/
COc1ccc(S(=O)(=O)N2CCCCCC2)cc1C(=O)Nc1cccc(C)n1	7	-4.2	/	/	/
CCc1nc(N)c(C#N)c(-c2ccc(OC)c(OC)c2)c1C	-4	1.7	-4	-2%	4
COc1ccc(-n2c(SCc3ccc([N+](=O)[O-])cc3)nnc2-c2ccccc2)cc1	11	-0.7	4	11%	-27
COc1ccc(OCC(O)CNC(=O)Nc2cc(F)ccc2C)cc1 (configuration not stated)	-9	2.1	/	-15%	/
COc1ccc(/C=N/N=C2/NC(=O)C(c3ccccc3)(c3ccccc3)S2)cc1	5	-0.2	-1	-2%	-6
COc1ccc(C(=O)Nc2ccc(S(=O)(=O)Nc3cc(C)nc(C)n3)cc2)c(OC)c1	62	-1.2	2	0%	-21	Arbovirus inh repeat=5
